Assay outcomes (PubChem)
3T3 cytotox: cytotoxic compounds in NIH 3T3 cells; NIH 3T3 viability, CellTiter-Glo ATP luminescence, 48-72 h; Potency, µM (doses to about 96.7 µM), for the others: at the highest dose activity change, negative = cytotoxicity, most hits filed as inhibitors; actives 4.3% (n = 94,000); AID 1345082; also: nearly all actives have a fitted effect of over 55% in size
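Cells were seeded at 400 per well, treated with pin-transferred compound, and kept 48 or 72 hr at 37 °C before CellTiter-Glo addition and luminescence imaging of cellular ATP.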
SNCA expr inh: reduces expression of the alpha-synuclein gene | HEK-293 SNCA-luciferase knock-in, luminescence, 24 h | Potency, µM (top dose mostly 57.2 µM), for the others: at the top dose activity change, negative = inhibition, usual class: inhibitors | actives 0.17% (n = 140,000) | AID 1671194;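 also: plate controls were DMSO cells for no effect and cell-free wells for full effect; nearly all actives have a fitted effect of over 45% in size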
Luciferase inh: inhibitors of firefly (Photinus pyralis) luciferase. actives 2.5% (n = 76,000). Potency, µM (titrated, usually from 115 µM), inactives show top-dose activity change, negative = inhibition, usual class: inhibitors. P08659. purified P. pyralis luciferase, luminescence, biochemical. AID 1347043; also: nearly all actives have a fitted effect of over 65% in size
Target sequence (P08659 whole entry, looked up): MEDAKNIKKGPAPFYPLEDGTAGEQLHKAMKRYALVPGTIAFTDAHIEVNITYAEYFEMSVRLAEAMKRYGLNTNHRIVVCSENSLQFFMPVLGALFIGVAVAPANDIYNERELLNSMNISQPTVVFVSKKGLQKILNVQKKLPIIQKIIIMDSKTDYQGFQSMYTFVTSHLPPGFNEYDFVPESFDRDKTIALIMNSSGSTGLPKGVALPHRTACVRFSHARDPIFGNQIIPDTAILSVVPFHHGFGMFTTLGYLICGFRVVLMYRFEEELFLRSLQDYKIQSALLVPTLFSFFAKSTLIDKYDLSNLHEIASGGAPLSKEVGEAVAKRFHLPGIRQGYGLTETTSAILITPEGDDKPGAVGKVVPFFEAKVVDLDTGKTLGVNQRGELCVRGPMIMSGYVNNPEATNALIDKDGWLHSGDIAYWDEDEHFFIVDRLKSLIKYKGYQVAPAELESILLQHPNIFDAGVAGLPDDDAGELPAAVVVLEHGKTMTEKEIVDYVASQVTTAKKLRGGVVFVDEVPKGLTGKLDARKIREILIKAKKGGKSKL
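Purified P. pyralis luciferase (10nM final) in 50mM Tris acetate pH 7.5, 10mM Mg acetate, 0.01% Tween-20, 0.05% BSA with 10uM D-luciferin and 10uM ATP. Compounds titrated qHTS. Luminescence imaged on CCD.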
HEK cytotox: cytotoxic compounds in HEK 293 cells | Potency, µM (doses to about 115 µM), for inactives: at the highest dose activity change, negative = cytotoxicity, usual class: inhibitors | HEK 293 viability, ATP luminescence (CellTiter-Glo), 48-72 h | AID 1345083 | actives 6.6% (n = 94,000); also: nearly all actives have a fitted effect of over 60% in size
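ATP-coupled CellTiter-Glo luminescence served as viability read-out, recorded 10 min after reagent addition at room temperature. HEK 293 cells, 250 cells/well, had been incubated with pintool-transferred compound for 48 or 72 hr at 37 degree Celsius.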
Active calls of the source: *; i = inactive; ? = inconclusive; . = not tested or not shown; [ ] = dose if it differs, or a comment. Calls follow the shape of the dose curve; as a rule, active = well fitted curve in the direction sought with a large enough effect; inconclusive = small, poorly fitted or top-dose-only effect, or another doubt; inactive = no such curve, though single readings can be large; an effect the other way counts as inactive or inconclusive. Unless noted, % is scaled to controls: 0 for no effect and ±100 for the full control effect; potency is read from the fitted curve at half-maximal effect. Only part of the results is shown, so the mix of outcomes need not match the whole.

SMILES	3T3 cytotox	SNCA expr inh	Luciferase inh	HEK cytotox
NC(=O)CN1CCC(C(=O)NCCCn2ncc3ccccc32)CC1	2%	3%	-5%	-4%
CN(C)C(C(=O)N1CCSCC1)c1ccc(F)cc1 (configuration not stated)	0%	-2%	4%	1%
CNC(=O)N1CCc2nc(N3CCN(C)CC3)[nH]c(=O)c2CC1	i	-11%	17%	-3%
Cn1cnnc1CC1CCN(c2ncc(C(F)(F)F)cc2Cl)CC1	-24%	-1%	6%	?
CN(C)C(C(=O)N1CCN(Cc2ccccc2C#N)CC1)c1ccc(F)cc1 (configuration not stated)	i	8%	-4%	-11%
COCCCNC(=O)C1COC2(CCC(C)CC2)N1C(=O)c1ccccc1F (configuration not stated)	i	12%	5%	-5%
CN1Cc2nc(OCc3ccc(F)cc3)ccc2OCC1=O	?	-10%[87.6 µM]	-1%[172 µM]	?
c1ccc(N2CCCC(c3nccn3Cc3ccncc3)C2)nc1 (configuration not stated)	i	-13%	-2%	2%
Cc1cc(NC(=O)C(C)(C)Oc2nn(CC3CC3)c3ccc(CN4CCCC4)cc23)n(C)n1	?	-16%	-7%	?
COCCCNC(=O)CC1=C2CCCCC2N(Cc2ccc(F)cc2)C1=O (configuration not stated)	-12%	5%	.	1%
Cc1nccnc1N1C[C@H](NC(=O)CN2CC(=O)NC2=O)[C@@H](C2CC2)C1	-7%	9%	0%	-1%
COc1cccn(CC(=O)N(C)Cc2c(C)noc2C)c1=O	-3%	-2%	5%	-1%
CC(C)c1nc(C2Cc3ccccc3N2C(=O)C2CC2)no1 (configuration not stated)	-27%	172%[activator]	?	-29%
COc1ccc(OC)c(NC(=O)CCC2CCN(C(=O)c3ccccc3)CC2)c1	-26%	?	-13%	?
CC(C)c1nc2c(NC(=O)COc3ccccc3)cccn2n1	-3%	25%	-3%	-2%

An excerpt of these results, field by field:
COCCCNC(=O)CC1=C2CCCCC2N(Cc2ccc(F)cc2)C1=O (configuration not stated)
  3T3 cytotox: -12%	SNCA expr inh: 5%	Luciferase inh: .	HEK cytotox: 1%
Cc1nccnc1N1C[C@H](NC(=O)CN2CC(=O)NC2=O)[C@@H](C2CC2)C1
  3T3 cytotox: -7%	SNCA expr inh: 9%	Luciferase inh: 0%	HEK cytotox: -1%
COc1cccn(CC(=O)N(C)Cc2c(C)noc2C)c1=O
  3T3 cytotox: -3%	SNCA expr inh: -2%	Luciferase inh: 5%	HEK cytotox: -1%

(next part)
SMILES	3T3 cytotox	SNCA expr inh	Luciferase inh	HEK cytotox
COCC(=O)N1CC[C@]2(O)CCN(C(=O)c3ccccc3N(C)C)C[C@@H]2C1	1%	?	-6%	-5%
O=C(O)C1=CC(O)C(O)[C@H](O)C1 (some centres not stated)	.	18%	.	.
Cc1nn(-c2cccc(Br)c2)c(C)c1[C@@H]1C=C[C@@H](NC(=O)c2cccs2)C1	?	4%	?	?
COCCCNC(=O)C(NC(=O)c1ccccc1)C1CCN(C(=O)c2ccc(Cl)cc2)CC1 (configuration not stated)	-1%	2%	-8%	3%
COc1ccc(Cn2c(C(C)n3cccn3)n[nH]c2=O)cc1 (configuration not stated)	-7%	?	10%	-3%
COc1ccccc1S(=O)(=O)Nc1c(C)nn(CC(=O)O)c1C	i	0%	-2%	0%
O=C(CCC1CCN(C(=O)c2ccccc2)CC1)Nc1cccnc1	-1%	2%	0%	-18%
O=C(c1ccccn1)N1CCCCCC1CN1CCCC1 (configuration not stated)	-6%	15%	7%	-3%
O=C(CCCCCCC(=O)Nc1ccccc1)NO	.	34%[activator]	.	.

A different layout for 3 compounds above:
mol,3T3 cytotox,SNCA expr inh,Luciferase inh,HEK cytotox
COc1ccccc1S(=O)(=O)Nc1c(C)nn(CC(=O)O)c1C,i,0%,-2%,0%
O=C(CCC1CCN(C(=O)c2ccccc2)CC1)Nc1cccnc1,-1%,2%,0%,-18%
COCCCNC(=O)C(NC(=O)c1ccccc1)C1CCN(C(=O)c2ccc(Cl)cc2)CC1 (configuration not stated),-1%,2%,-8%,3%

Entries above with a COOH group (two):
SMILES	3T3 cytotox	SNCA expr inh	Luciferase inh	HEK cytotox
O=C(O)C1=CC(O)C(O)[C@H](O)C1 (some centres not stated)	.	18%	.	.
COc1ccccc1S(=O)(=O)Nc1c(C)nn(CC(=O)O)c1C	i	0%	-2%	0%
